Source: PubChem (Center for Chemical Genomics, University of Michigan)
CDC25B-CDK2 inh = human CDC25B-CDK2/CyclinA binding inhibition. P30305+P24941. HTRF CDC25B-CDK2/CyclinA binding, anti-His/anti-Flag; active compounds read high. z-score (concentration not given with the values). 0.72% of 94,000 active. AID 1259370;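 note: score is relative to mean and SD of negative controls; strong numbers were not always called active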
HIV TAR-Tat = HIV-1 TAR-Tat binding disruption; z-score (concentration not given with the values); 0.6% of 100,000 active; HIV-1 TAR RNA, Tat peptide displacement FRET; active compounds read high; AID 1259389;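 note: score is relative to mean and SD of negative controls; some compounds called inactive have numbers as strong as hits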
Starred values were filed as active, the others as inactive.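 Rule for the calls: active = z-score from 3 up in half or more of its runs; inactive = the rest.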

For CCCCNC(=O)NS(=O)(=O)c1ccc(C)cc1 the results were CDC25B-CDK2 inh -1.8 and HIV TAR-Tat 1.1.
Screening CC1=C(c2ccc(C(C)C)cc2)S(=O)(=O)N=C1Nc1ccccc1C returned CDC25B-CDK2 inh 0.1 and HIV TAR-Tat -1.1.
Screening O=C(NCc1cccc(Cl)c1)Nc1ccc2snnc2c1 returned CDC25B-CDK2 inh 0.48 and HIV TAR-Tat -0.6.
Screening Cc1cccc(NC(=O)c2noc3c2CCc2sccc2-3)n1 returned HIV TAR-Tat -0.95.
For CCOC(=O)Cn1ccc2c(=O)n(CC)c(=O)n(CC)c21 the results were CDC25B-CDK2 inh -2.7 and HIV TAR-Tat 2.3.
O=C(CCCn1c(=O)c2cccn2c2ccccc21)NCCc1cccs1 was read as HIV TAR-Tat 2.3.
CC1=CC(C)(C)Nc2ccc(OC(=O)c3ccc(F)cc3)cc21 was read as CDC25B-CDK2 inh 0.98 and HIV TAR-Tat -0.21.
`CCN(CCNc1ncnc2onc(-c3cccc(Cl)c3)c12)Cc1ccccc1` gave HIV TAR-Tat 0.52.
`COC(=O)c1ccc(-c2ccco2)n1CC(=O)NCCCN1CCOCC1` gave HIV TAR-Tat 1.6.
Screening O=C(Cn1c(=O)oc2cc(Cl)ccc21)N1CCN(c2ccccc2F)CC1 returned HIV TAR-Tat 0.84.
`CC(C)CCNC(=O)Cn1c(=O)oc2cc(S(=O)(=O)N3CC(C)CC(C)C3)ccc21` (configuration not stated) gave CDC25B-CDK2 inh -1.5 and HIV TAR-Tat 1.7.
For O=C(c1cccc(Br)c1)N1CCN(c2cc(=O)n3nc(-c4ccccc4)sc3n2)CC1 the results were HIV TAR-Tat -0.04.
Cn1cccc1CNC(=O)CN1C(=O)c2ccccc2C1=O was read as CDC25B-CDK2 inh 0.51.
Screening CCc1nc2nc(C)cc(NCCc3cccc(C)c3)n2n1 returned CDC25B-CDK2 inh -0.43 and HIV TAR-Tat -0.28.
Screening COc1ccc(C2CC(=O)C3=C(C2)Nc2ccccc2NC3c2ccc(Cl)cc2)cc1 (configuration not stated) returned CDC25B-CDK2 inh 1.2 and HIV TAR-Tat 1.2.
`O=C1CCCN1c1ccc(S(=O)(=O)NC2CCCC2)cc1` gave HIV TAR-Tat 1.4.
`CCOC(=O)c1ccc(C(=S)N2CCCC2)cc1` gave CDC25B-CDK2 inh -2.1.
For CC(=O)c1ccccc1OC(=O)c1cc(C(F)(F)F)cc(C(F)(F)F)c1 the results were CDC25B-CDK2 inh -1.1.
CCCSCCCNC(=O)CN1C(=O)CSc2ncccc21 was read as CDC25B-CDK2 inh -1.3 and HIV TAR-Tat 1.5.
For Cc1cccc(NC2=NC3(CCCCC3)N=C(N)N2)c1 the results were CDC25B-CDK2 inh -0.29.
Screening Cc1ccc(-c2c3c(=O)n(C)c(=O)n(C)c3cn2C(C)(C)C)cc1 returned CDC25B-CDK2 inh -0.57 and HIV TAR-Tat 2.7.
For Cc1csc(NC(=O)CN2C(=O)C(C)(C)c3cc(S(=O)(=O)N4CCOCC4)ccc32)n1 the results were HIV TAR-Tat -0.07.
Screening CN(CC(=O)NC1CC1)S(=O)(=O)c1ccc2c(c1)CCCC(=O)N2 returned HIV TAR-Tat 1.5.
For COC(=O)CNC(=O)N1CCC2(CC1)Nc1cc(F)ccc1-n1cccc12 the results were HIV TAR-Tat 1.2.
Screening COc1ccc(-c2noc(-c3ccc(Br)cc3)n2)cc1OC returned CDC25B-CDK2 inh -0.59 and HIV TAR-Tat -1.3.
`Cc1noc2ncnc(N3CCC(C(=O)N4CCC(N5CCCCC5)CC4)CC3)c12` gave HIV TAR-Tat 1.5.
For O=C(CSc1nc2ccccc2nc1N1CCCC1)NC1CCCC1 the results were CDC25B-CDK2 inh -0.23 and HIV TAR-Tat -0.52.
Cc1c(C(=O)N2CC(C)CC(C)C2)sc2ncn(CC(=O)N3CCCCC3)c(=O)c12 (configuration not stated) was read as HIV TAR-Tat 1.8.
Cc1ccc(CNS(=O)(=O)c2ccc(-c3ccno3)s2)cc1 was read as HIV TAR-Tat -0.14.
Cc1c(S(=O)(=O)c2ccc(Cl)cc2)csc1C(=O)Nc1ccc2c(c1)COCO2 was read as CDC25B-CDK2 inh -1.9.

Quoted at random: 5 records from the list, in no set order.
Cc1c(C(=O)N2CC(C)CC(C)C2)sc2ncn(CC(=O)N3CCCCC3)c(=O)c12 (configuration not stated) was read as HIV TAR-Tat 1.8.
Cc1ccc(CNS(=O)(=O)c2ccc(-c3ccno3)s2)cc1 was read as HIV TAR-Tat -0.14.
Screening Cc1ccc(-c2c3c(=O)n(C)c(=O)n(C)c3cn2C(C)(C)C)cc1 returned CDC25B-CDK2 inh -0.57 and HIV TAR-Tat 2.7.
Cc1c(S(=O)(=O)c2ccc(Cl)cc2)csc1C(=O)Nc1ccc2c(c1)COCO2 was read as CDC25B-CDK2 inh -1.9.
For COC(=O)CNC(=O)N1CCC2(CC1)Nc1cc(F)ccc1-n1cccc12 the results were HIV TAR-Tat 1.2.

The results go on:
`O=c1c(N2CCN(C/C=C/c3ccccc3)CC2)csc2ccc(Cl)cc12` gave HIV TAR-Tat -2.8.
Screening Cc1csc2nc(CNC(=O)CCC(=O)O)cn12 returned CDC25B-CDK2 inh 1.2 and HIV TAR-Tat 1.1.
`CCc1ccc(S(=O)(=O)NCc2cn3ccccc3n2)s1` gave CDC25B-CDK2 inh -1.
Screening COc1ccc(C(C)=O)cc1CSc1nnc(SCc2cc(C(C)=O)ccc2OC)s1 returned CDC25B-CDK2 inh -1.2.
Screening CCCS(=O)(=O)N1CCCc2ccc(NS(=O)(=O)c3ccc(F)cc3C)cc21 returned HIV TAR-Tat -1.1.
Screening Cc1cc(CNC(=O)NC(C)C)c(C)n1-c1cccc(Cl)c1 returned HIV TAR-Tat -1.1.
Screening CC(=O)NCCSCc1c(F)cccc1Cl returned CDC25B-CDK2 inh -1.7.
For O=C(O)CCN1C(=O)C(=O)/C(=C(/O)c2ccc(Cl)cc2)C1c1ccc(Cl)cc1 (configuration not stated) the results were CDC25B-CDK2 inh -2.
Screening CCc1ccc(S(=O)(=O)c2nnn3c2nc(N2CCN(C)CC2)c2sccc23)cc1 returned HIV TAR-Tat -1.1.
`Cc1nc2c(c(Nc3ccccc3O)n1)CCC2` gave CDC25B-CDK2 inh -2.4 and HIV TAR-Tat 1.9.
For O=C(NCC1CCCO1)c1c(NC(=O)c2nn(-c3cccc(Cl)c3)ccc2=O)sc2c1CCC2 (configuration not stated) the results were CDC25B-CDK2 inh 0.78 and HIV TAR-Tat 2.4.
`Cc1cc(C)c(C#N)c(SCC(=O)Nc2ccc(S(=O)(=O)Nc3nccs3)cc2)n1` gave CDC25B-CDK2 inh 0.58.
COc1ccc(OC)c(/C=C/c2c([N+](=O)[O-])c(=O)n(C)c(=O)n2C)c1 was read as CDC25B-CDK2 inh -1.8 and HIV TAR-Tat -0.72.
Screening CCn1c(SCC(N)=O)nc2c(c1=O)SC(C)C2 (configuration not stated) returned CDC25B-CDK2 inh -1.1.
For CC(C)CCNC(=O)C1(C)Cn2c(c(-n3cccc3)c3ccccc32)C(=O)N1Cc1ccco1 (configuration not stated) the results were HIV TAR-Tat 0.66.
Screening CCOc1cc(C2c3c(oc4ccc(C)cc4c3=O)C(=O)N2Cc2ccc(F)cc2)ccc1O (configuration not stated) returned CDC25B-CDK2 inh 2 and HIV TAR-Tat 1.8.
Brc1ccc(-c2nn3c(C4COc5ccccc5O4)nnc3s2)cc1 (configuration not stated) was read as CDC25B-CDK2 inh -2.3 and HIV TAR-Tat 3.5.
Cc1cc(-c2ccc(S(=O)(=O)Nc3ccccc3)s2)on1 was read as HIV TAR-Tat -0.57.
COc1ccc(C(=O)Nc2cccc(C(=O)O)c2)cc1S(=O)(=O)N1CCOCC1 was read as CDC25B-CDK2 inh -0.61.
S=C1N2CCN=C2SC2=NCCN12 was read as CDC25B-CDK2 inh -0.99.
Screening COC(=O)c1sccc1-c1ccc(C=Nc2ccc(Cl)cc2)o1 returned CDC25B-CDK2 inh -0.66.
For Cc1ccc(NC2c3ncccc3C(=O)N2Cc2cccs2)c(Br)c1 (configuration not stated) the results were HIV TAR-Tat 1.4.
`O=C(Nc1ccccc1Br)N1CC=C(c2c[nH]c3ccccc23)CC1` gave HIV TAR-Tat -6.
For CC1CCCCC1NC(=O)C1CCCN(S(=O)(=O)c2ccc3c(c2)CC(C)N3C(=O)C2CC2)C1 (configuration not stated) the results were HIV TAR-Tat 1.1.
Screening CCOC(=O)c1c(C)n(CC)c2ccc(OC(=O)COc3ccc(OC)cc3)cc12 returned CDC25B-CDK2 inh 1.1.
For COC(=O)c1sccc1S(=O)(=O)Nc1cc(OC)ccc1OC the results were HIV TAR-Tat -0.17.
COC(=O)c1cc(/C=N/NS(=O)(=O)c2ccc(C)cc2)cn1C was read as CDC25B-CDK2 inh -2.
COC(=O)c1ccc(C2=NN(C(C)=O)C(c3cc(-c4ccccc4)nc4ccccc34)O2)cc1 (configuration not stated) was read as HIV TAR-Tat 0.37.
`CCC(=O)Nc1nnc(SCc2cc(=O)n3nc(C(C)C)sc3n2)s1` gave HIV TAR-Tat -0.23.
Screening O=C(COC(=O)C1CCN(S(=O)(=O)c2cccc3cccnc23)CC1)c1cccc([N+](=O)[O-])c1 returned CDC25B-CDK2 inh -1.5.

A section from further up, as a working copy:
Screening COC(=O)c1sccc1-c1ccc(C=Nc2ccc(Cl)cc2)o1 returned CDC25B-CDK2 inh -0.66.
For Cc1ccc(NC2c3ncccc3C(=O)N2Cc2cccs2)c(Br)c1 (configuration not stated) the results were HIV TAR-Tat 1.4.
`O=C(Nc1ccccc1Br)N1CC=C(c2c[nH]c3ccccc23)CC1` gave HIV TAR-Tat -6.
For CC1CCCCC1NC(=O)C1CCCN(S(=O)(=O)c2ccc3c(c2)CC(C)N3C(=O)C2CC2)C1 (configuration not stated) the results were HIV TAR-Tat 1.1.

Following part.
Screening COc1cccc(-c2noc(NCCc3ccccc3)n2)c1OC returned HIV TAR-Tat -0.09.
CCCN1C=C(OC(=O)c2ccco2)c2ccccc2S1(=O)=O was read as CDC25B-CDK2 inh -0.4 and HIV TAR-Tat 0.13.
`Cc1ccc(C2N(c3ccc(Cl)cc3)C(=O)C3CCCN32)o1` (configuration not stated) gave CDC25B-CDK2 inh -1 and HIV TAR-Tat -0.52.
For Cc1ccc(S(=O)(=O)Nc2sc3c(c2C(=O)O)CCCC3)cc1 the results were CDC25B-CDK2 inh -2.2 and HIV TAR-Tat -0.23.
`O=C(O)CCCN1C(=O)C(=O)/C(=C(/O)c2ccccc2)C1c1ccc(Cl)cc1` (configuration not stated) gave CDC25B-CDK2 inh 0.04.
For C/C(=N\NC(=O)c1ccc(N2CCCC2=O)cc1)c1ccccc1 the results were CDC25B-CDK2 inh -0.25.
Screening CC(C)OCCCn1c(=O)c2ccccc2n2c(=O)[nH]nc12 returned CDC25B-CDK2 inh -3 and HIV TAR-Tat 0.46.
Screening CC1CCCN(c2ncnc3sc4c(c23)CCCC4)C1 (configuration not stated) returned CDC25B-CDK2 inh -1.5 and HIV TAR-Tat 2.3.
`CC12CCC(C(C)(C)O)C(CC(=O)O1)C2` (configuration not stated) gave CDC25B-CDK2 inh -0.01.
For Cc1cccc(OCc2ccc(-c3nc(C#N)c(NCCCn4ccnc4)o3)o2)c1 the results were CDC25B-CDK2 inh -0.2 and HIV TAR-Tat -0.7.
For Cc1cc(C)c(S(=O)(=O)NCCn2nc(-c3ccc(F)cc3)ccc2=O)cc1C the results were HIV TAR-Tat 1.1.
For CCSc1nc2ccccc2n1CC(=O)O the results were CDC25B-CDK2 inh -0.92 and HIV TAR-Tat 0.41.
Screening Cc1nn2c(=O)cc(CSc3nnc(-c4ccco4)n3C)nc2s1 returned HIV TAR-Tat -0.37.
CC(=O)C1C(c2ccc(Br)cc2)NC(=O)NC1(O)C(F)(F)F (configuration not stated) was read as CDC25B-CDK2 inh 0.01.
CCCCc1ccc(S(=O)(=O)Cc2nc(-c3ccc(OC)cc3)no2)cc1 was read as CDC25B-CDK2 inh -1.6 and HIV TAR-Tat 0.02.
`CC(C)OC(=O)c1cnn2c(C(F)(F)F)cc(-c3ccc(F)cc3)nc12` gave CDC25B-CDK2 inh -0.2 and HIV TAR-Tat 3.
`Cc1nc(-c2ccc(NC(=O)c3ccc(Cl)cc3)cc2)cs1` gave CDC25B-CDK2 inh -0.72.
`O=c1[nH]c2ccc(S(=O)(=O)Nc3ccc4c(c3)OCCO4)cc2[nH]c1=O` gave CDC25B-CDK2 inh 0.17.
For O=C1NCCN1Cc1ccc(F)cc1 the results were HIV TAR-Tat 0.72.
Oc1ccc(N2Cc3ccccc3C2)cc1 was read as CDC25B-CDK2 inh -0.69 and HIV TAR-Tat 1.8.
Screening CCN(CC)CCCNC(=O)c1sc2ccccc2c1Cl returned CDC25B-CDK2 inh 0.16 and HIV TAR-Tat 0.14.
`CCOC(=O)C1CCN(c2ncnc3c2nnn3C)CC1` gave HIV TAR-Tat 1.5.
CCOC(=O)c1cnc(SCC(=O)N2CCOCC2)nc1N was read as CDC25B-CDK2 inh -0.42 and HIV TAR-Tat 0.89.
Screening CCOc1cc(CC(=O)N[C@@H](CC(C)C)c2ccccc2N2CCCCC2)ccc1C(=O)O returned HIV TAR-Tat -0.67.
Screening Cc1cc(C)c2c(c1)-c1cc(C)nn1C(c1ccc3c(c1)OCO3)N2 (configuration not stated) returned CDC25B-CDK2 inh 1.3 and HIV TAR-Tat 1.1.
Screening Cc1nn(C(=O)CNS(=O)(=O)c2ccc(Cl)cc2)c(C)c1Sc1ccc(Cl)cc1 returned CDC25B-CDK2 inh -1.2 and HIV TAR-Tat -0.98.
Cn1c(=O)c2c(-c3ccccc3Cl)n(Cc3ccccc3)cc2n(C)c1=O was read as CDC25B-CDK2 inh -0.27 and HIV TAR-Tat 0.66.
`Cc1n[nH]c(C)c1CCc1nc2c3ccccc3nc(NCc3ccc(F)cc3)n2n1` gave CDC25B-CDK2 inh 0.28 and HIV TAR-Tat 1.1.
For O=C(O)CC1=C(Nc2ccccc2)C(=O)N(c2ccccc2)C1c1ccc(Br)cc1 (configuration not stated) the results were CDC25B-CDK2 inh -0.55 and HIV TAR-Tat -0.31.
